Bioassay records deposited in PubChem by Johns Hopkins Ion Channel Center.
KCNQ2 block: KCNQ2 potassium channel inhibitors, primary screen, cell-based, CHO-K1, FluxOR thallium flux, B-score (AID 2156) | Potassium voltage-gated channel subfamily KQT member 2 (Rattus norvegicus), O88943 | 20 min; stronger effect = lower value; only compounds with negative scores are shown here; some inactives read as strong as hits | B-score at 10 µM | 310,000 tested, 1.1% active;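 active = fluorescence ratio B-score at most minus 3 library SDs, with starting brightness B-score within 2 library SDs, cut at about -5.5 in these data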
Target sequence (O88943 whole entry, looked up): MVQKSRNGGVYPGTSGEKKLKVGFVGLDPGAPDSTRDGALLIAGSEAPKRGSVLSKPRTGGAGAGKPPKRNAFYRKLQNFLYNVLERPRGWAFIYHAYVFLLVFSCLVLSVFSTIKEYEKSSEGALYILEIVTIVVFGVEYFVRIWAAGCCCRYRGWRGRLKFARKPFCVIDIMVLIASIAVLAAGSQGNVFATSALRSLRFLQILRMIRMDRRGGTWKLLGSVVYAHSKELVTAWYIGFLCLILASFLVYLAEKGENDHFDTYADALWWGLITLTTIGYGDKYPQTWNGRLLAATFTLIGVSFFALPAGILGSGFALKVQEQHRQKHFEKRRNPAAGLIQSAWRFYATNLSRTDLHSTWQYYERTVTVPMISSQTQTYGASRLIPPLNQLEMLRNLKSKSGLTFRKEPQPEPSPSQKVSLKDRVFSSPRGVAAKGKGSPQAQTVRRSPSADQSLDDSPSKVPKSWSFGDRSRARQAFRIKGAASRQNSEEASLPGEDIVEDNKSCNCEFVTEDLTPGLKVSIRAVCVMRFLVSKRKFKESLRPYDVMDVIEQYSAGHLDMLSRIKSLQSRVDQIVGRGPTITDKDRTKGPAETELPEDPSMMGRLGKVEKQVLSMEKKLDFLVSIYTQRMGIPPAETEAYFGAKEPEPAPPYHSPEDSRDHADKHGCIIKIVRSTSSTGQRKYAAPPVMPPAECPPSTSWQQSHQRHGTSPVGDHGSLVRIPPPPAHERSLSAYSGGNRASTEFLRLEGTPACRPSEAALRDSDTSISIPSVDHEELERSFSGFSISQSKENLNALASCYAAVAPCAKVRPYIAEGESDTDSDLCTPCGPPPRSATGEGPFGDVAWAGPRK
KCNQ2 block baseline: recorded beside KCNQ2 block, whose call it bears; B-score; measured here: initial fluorescence intensity artifact check;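 brightness before thallium and not channel activity; 0 = typical well and far values either way flag optical interference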
Active calls of the source: *; i = inactive. These rows are one share of the data. The share of hits here may be higher or lower than overall.

Every second line gives: KCNQ2 block | KCNQ2 block baseline
(1) COc1ccc(NC(=O)NCc2ccccc2F)cc1OC
    i | -0.35
(2) COCCN(Cc1ccccc1)C(=S)Nc1ccc(OC(F)F)cc1
    i | -1.4
(3) CCOC(=O)N1CCC(NCCNC(=O)c2cccs2)CC1
    i | -0.35
(4) Cc1cc(-c2nc(C)c(-c3nnc(SCC(=O)Nc4cc(Cl)cc(Cl)c4)n3C)s2)no1
    i | -2
(5) COc1ccc(-c2ccc(=O)n(Cc3cccc([N+](=O)[O-])c3)n2)cc1
    i | 0.02
(6) Nc1nonc1-n1nnc(C(=O)N/N=C/c2cc(Cl)ccc2O)c1CN1CCCCCC1
    i | -0.29
(7) COc1ccccc1NC(=O)Cc1nnc(SCC(=O)Nc2nccs2)n1C
    i | -0.01
(8) CCOc1ccccc1CN1CCNC(=O)C1CC(=O)NCc1ccccn1 (configuration not stated)
    i | -0.65
(9) Cc1c(Br)c(=O)oc2c(C)c(O)ccc12
    i | 0.01
(10) Cc1cccc(NC(=O)CSc2ccc3nnc(-c4cccnc4)n3n2)c1
    i | -1.1
(11) Cc1cc(NC(=O)CCC(=O)N(Cc2ccco2)C(C(=O)NC2CCCC2)c2ccccc2C)no1 (configuration not stated)
    i | -0.75
(12) Nc1nonc1-n1nnc(C(=O)N/N=C/c2cc(Br)ccc2O)c1CNc1ccccc1
    i | -1.6
(13) N#CCC1c2ccccc2CCN1C(=O)Nc1cccc(Cl)c1 (configuration not stated)
    i | -1.4
(14) CCOC(=O)C1=C(N)Oc2c(oc(CO)cc2=O)C1c1ccc(Cl)cc1 (configuration not stated)
    i | -2.3
(15) COc1cc(N=Nc2ccc3ccccc3c2)ccc1O
    i | -1.9
(16) Cc1[nH]nc2c1C(c1ccoc1)C(C#N)=C(N)O2 (configuration not stated)
    i | -2
(17) CC(=O)c1ccc(NC(=O)CN2CCN(c3ncccn3)CC2)cc1
    i | 3.7
(18) O=C(NC1CCCN(Cc2ccc(Cl)cc2)C1)c1c(F)ccc(F)c1F (configuration not stated)
    i | -1.6
(19) CCN1C(=O)C2C(C1=O)N1C(c3cccs3)C3C(=O)N(CC)C(=O)C3N1C2c1cccs1 (configuration not stated)
    i | -1.6
(20) CCN(CC)CCNC(=O)C1(O)c2cc(Br)ccc2NC(=O)N1c1cccc(OC)c1 (configuration not stated)
    i | -0.25
(21) COc1cccc(-c2cc(C(F)(F)F)c3c(N)c(C#N)sc3n2)c1
    i | 1.7
(22) COc1ccc(OCCSc2nnc(-c3cccnc3)n2N)cc1
    i | -0.25
(23) COc1cccc(NC(=O)Nc2ccc3c(c2)N(C)C(=O)CS3)c1
    i | -1.4
(24) CCc1nnc(NC(=O)C2CCCO2)s1 (configuration not stated)
    i | 1.1
(25) COc1ccccc1/C=C1\SC(=S)N(CCC(=O)Nc2cccc(O)c2)C1=O
    i | 0.05
(26) COc1ccc(-n2nc(C(=O)NCCCN3CCOCC3)c3ccccc3c2=O)c(OC)c1
    i | -0.33
(27) O=C(CSc1ccccc1Cl)NC1CCCc2ccccc21 (configuration not stated)
    i | 0.41
(28) COc1ccc(-n2nc(C(=O)NCC(=O)Nc3cccc(C)n3)c3ccccc3c2=O)cc1
    i | 0.72
(29) COc1ccccc1NC(=O)COC(=O)c1ccc(S(=O)(=O)NCc2ccco2)cc1
    i | -0.02
(30) O=C(c1ccc(OC2CCN(C/C=C/c3ccccc3)CC2)cc1)N1CCCC1
    i | 0.06
(31) Cc1onc(-c2ccccc2)c1C(=O)Nc1ccc(Br)cc1Cl
    i | 0.06
(32) CCC(=O)Nc1nnc(SCc2cccc(F)c2)s1
    i | 0.22
(33) O=[N+]([O-])c1cnccc1Nc1ccccc1
    i | -1.9
(34) COc1cccc(/C(O)=C2/C(=O)C(=O)N(c3ccccn3)C2c2ccc(OC)c(OC)c2)c1 (configuration not stated)
    i | 0.34
(35) Cc1ccc(C)c(S(=O)(=O)N2CCN(C(C)C(=O)Nc3ccccc3-c3ccccc3)CC2)c1 (configuration not stated)
    -5.8* | 0.22*
(36) CC(C)CNS(=O)(=O)c1ccc(CCC(=O)NCc2cccnc2)cc1
    i | 1.3
(37) COc1ccc(C(CNC(=O)c2cc(S(=O)(=O)NCc3ccccc3)ccc2C)N2CCOCC2)cc1 (configuration not stated)
    i | 0.01
(38) CCCCC(=O)Nc1ccc(C(=O)OC2CCCCC2)cc1
    i | -0.23
(39) O=C(NC1CC2CCC(C1)N2C(=O)NCc1ccccc1)C1CC1 (configuration not stated)
    i | 3.9
(40) COc1cc(OC)c(/C=N/NC(=O)c2ccc(Cn3nc([N+](=O)[O-])cc3C)cc2)c(OC)c1
    i | 0.02
(41) CC(=O)N1CCC(C(=O)Nc2ccc(S(=O)(=O)NCCc3ccccc3)cc2)CC1
    i | 0.46
(42) COc1ccccc1/C=N/Nc1nc(C)c(C(C)=O)s1
    i | -0.37
(43) Cc1cccc(C)c1NC(=O)CSc1nnc(C)c(=O)[nH]1
    i | 1.3
(44) C=CCNC(=O)CN(c1cccc(Br)c1)S(C)(=O)=O
    i | 1.6
(45) Cc1ccc(C)c(N2CCN(C(c3ccncc3)c3nnnn3Cc3ccccc3)CC2)c1 (configuration not stated)
    i | -1.2
(46) COc1ccc(NC(=O)C2Cc3cccc(OC)c3O/C2=N\O)cc1 (configuration not stated)
    i | 0.02
(47) Cc1cc(C)n2cc(CSc3nnnn3C)nc2n1
    i | 0.47
(48) O=C(NCCCn1ccnc1)c1cccc(Br)c1
    i | 1.8
(49) COc1cc(OC)cc(C(=O)Nc2cccc(C(C)=O)c2)c1
    i | -1.7
(50) COc1ccc2c(c1OC)C(=O)OC2C/C(=N\NC(N)=O)c1ccccc1 (configuration not stated)
    i | 1.7

3 compounds from above, arranged by length of the SMILES, ascending:
Every second line gives: KCNQ2 block | KCNQ2 block baseline
(7) COc1ccccc1NC(=O)Cc1nnc(SCC(=O)Nc2nccs2)n1C
    i | -0.01
(45) Cc1ccc(C)c(N2CCN(C(c3ccncc3)c3nnnn3Cc3ccccc3)CC2)c1 (configuration not stated)
    i | -1.2
(26) COc1ccc(-n2nc(C(=O)NCCCN3CCOCC3)c3ccccc3c2=O)c(OC)c1
    i | -0.33

(continued)
Every second line gives: KCNQ2 block | KCNQ2 block baseline
(51) CC(C)c1ccc(C(=O)N/N=C/c2cccc(Cl)c2Cl)cc1
    -9.5* | 1*
(52) CN(C)C(CNC(=O)C1CCN(C(=O)/C=C/c2ccccc2)CC1)c1ccccc1 (configuration not stated)
    i | -0.82
(53) Cc1cc(=O)[nH]c(N/N=C/c2c(C)nn(-c3ccccc3Cl)c2Cl)n1
    i | 1.5
(54) Cc1ccccc1-n1c(SCC(N)=O)nc2sc(-c3ccccc3)cc2c1=O
    i | 0.02
(55) Cc1ccc(NCCC(=O)c2ccc(Cl)c(Cl)c2)cc1
    i | -0.07
(56) COc1ccc(NC(=O)CSc2nc3c(c(=O)n2-c2ccccc2)SCC3)c(OC)c1
    i | 0.35
(57) CCCOc1cccc(C(=O)NCCNC(=O)c2cnccn2)c1
    i | -0.69
(58) O=C(O)c1ccc(COc2ccc3c4c(c(=O)oc3c2)CCC4)o1
    i | 0.47
(59) CCOCCCNC(=O)c1ccc2c(c1)ncn2C1CCCC1
    i | -0.66
(60) Cc1cccc(C2CC(c3ccc(Cl)cc3)Nc3nc(N)nn32)c1 (configuration not stated)
    i | 2.3
(61) CSC1=NC(C(Cl)(Cl)Cl)N=C(c2ccccc2)N1 (configuration not stated)
    i | -0.85
(62) NS(=O)(=O)c1ccc(CCNC(=O)COC(=O)CCc2ccccc2)cc1
    i | -0.14
(63) Cn1cc(CCC(=O)N2CCCC(CCC(=O)NCc3ccccc3F)C2)cn1 (configuration not stated)
    i | -0.65
(64) COc1ccc(OCCSc2nc(-c3ccccc3)cc(=O)[nH]2)cc1
    i | 1.6
(65) CCNc1oc(-c2cccc3ccccc23)nc1C#N
    i | -0.12
(66) CC(C)(C)C(=O)/C(=C/c1ccc(Cl)cc1)n1cncn1
    i | -1.1
(67) CCSc1cc(N2CCCC2)nc(-c2ccccc2)n1
    i | 0.64
(68) Cc1ccc(C(c2ccc(C)o2)c2cccc([N+](=O)[O-])c2O)o1
    i | 1.7
(69) O=C(NCc1cccs1)c1ccccc1C(=O)NCc1cccs1
    i | 1.9
(70) COc1ccccc1-c1nnc(Nc2nc3c(OC)cccc3s2)o1
    i | -2.9
(71) O=C(Cn1cc(C(F)(F)F)cc(Cl)c1=O)Nc1cc(S(=O)(=O)N2CCOCC2)ccc1Cl
    i | -0.27
(72) CC(CCCN(C)C)C(Cc1ccccc1)c1ccccc1 (configuration not stated)
    i | 0.62
(73) CN(C)C1N(C(=O)c2ccccc2)N=C2c3ccccc3S(=O)(=O)N21 (configuration not stated)
    i | 1.1
(74) Cc1cccc(C)c1-n1nnnc1SCSc1nnnn1-c1c(C)cccc1C
    i | 4.4
(75) COc1ccc(N2C(=O)c3ccccc3NC2c2ccc(OC)c(COc3ccccn3)c2)cc1 (configuration not stated)
    i | 4.2
(76) COc1cccc(NC(=O)Nc2c(C)n(C)n(-c3ccccc3)c2=O)c1
    i | -0.35
(77) O=C(NCc1cccs1)C1CCN(S(=O)(=O)c2cccc3cccnc23)CC1
    i | -1.3
(78) COCCCNC(=O)CSc1nc2cc(C(=O)NCCOC)ccc2c(=O)n1Cc1ccc2c(c1)OCO2
    i | 1.5
(79) Cc1ccc(NS(=O)(=O)c2ccc(OCC(N)=O)cc2)cc1
    i | 0.28
(80) O=C1C2CCCN2C(=S)N1c1ccccc1 (configuration not stated)
    i | 0.7
(81) Cn1c(-c2ccc(Br)o2)nc2ccccc21
    i | 2.6
(82) O=C(CCN1C(=O)C2C3CCC(C3)C2C1=O)Nc1ccccc1Cl (configuration not stated)
    i | -0.54
(83) O=C(Nc1ccccc1F)Nc1ccccc1N1CCCCC1
    i | -0.18
(84) CCOc1ccc(N(CC(=O)NCC2CCCO2)C(=O)CCC(=O)Nc2nccs2)cc1 (configuration not stated)
    i | 1.4
(85) Cc1nn(-c2ccccc2)c(C)c1NC(=O)COc1ccc2ccccc2c1
    i | 1.7
(86) O=C(O)c1cccc(NCc2ccncc2)c1
    i | 0.19
(87) COc1cccc(N=C2C(=O)N3CCCc4cccc2c43)c1
    i | -1.2
(88) C=CCc1c(C)nc(-c2ccccc2)nc1N/N=C(\C)c1ccccc1
    i | -0.36
(89) Cc1csc(=NC(=O)c2ccccc2)n1Cc1ccco1
    i | -0.24
(90) C=CCNC(=S)N/N=C/c1cn(-c2ccccc2)nc1-c1ccc(OC)cc1
    i | -0.3

Profiles, quoted from the list. Order of screens: KCNQ2 block	KCNQ2 block baseline
Shown for C=CCc1c(C)nc(-c2ccccc2)nc1N/N=C(\C)c1ccccc1 : i	-0.36
Shown for O=C(O)c1cccc(NCc2ccncc2)c1 : i	0.19
Shown for Cc1csc(=NC(=O)c2ccccc2)n1Cc1ccco1 : i	-0.24
Shown for O=C(CCN1C(=O)C2C3CCC(C3)C2C1=O)Nc1ccccc1Cl (configuration not stated) : i	-0.54
Shown for Cc1nn(-c2ccccc2)c(C)c1NC(=O)COc1ccc2ccccc2c1 : i	1.7

Remaining list, next part:
Every second line gives: KCNQ2 block | KCNQ2 block baseline
(91) CCNC(=O)c1cccc(S(=O)(=O)N2CCCCCC2)c1
    i | 1.4
(92) Cc1ccc(S(=O)(=O)NC2=NCN(Cc3ccccc3)CN2)cc1
    i | -0.05
(93) COC(=O)c1sccc1NC(=O)c1cc2c(s1)CCCC2
    i | 0.65
(94) CCOC(=O)c1c2ccccc2[n+]([O-])n1[C@@H](C)C(N)=O
    i | 1.6
(95) Fc1cnc(N2CCOCC2)nc1NCc1ccccc1
    i | 0.33
(96) CCOc1ccc2nc(SCc3ccc(C(=O)OC)o3)[nH]c2c1
    i | 0.59
(97) CC(C)C1Nc2ccc(C(=O)NC3CCCCC3)cc2NC1=O (configuration not stated)
    i | 0.69
(98) Cc1cc(C)cc(-n2cnc3cc(C(=O)O)ccc32)c1
    i | -0.75
(99) CCN(CC)c1ccc(/C=N/NC(=S)NCc2ccc(OC)cc2)cc1
    i | 0.33
(100) CC1(C)Cc2cccc(OCC(=O)OCC(=O)Nc3cccc(S(N)(=O)=O)c3)c2O1
    i | -0.07
(101) COc1cc(C=O)ccc1OC(=O)N1CCOCC1
    i | 0.57
(102) O=C(Nc1ccc2ccccc2c1)c1cn(-c2ccccc2)nc1-c1cccs1
    i | 0.27
(103) O=c1c2cc(-c3ccccc3)sc2ncn1/N=C/c1ccco1
    -5.9* | -0.76*
(104) COc1ccc(CNC(=O)CN(C(=O)c2snc(C(N)=O)c2N)c2ccccc2F)cc1
    i | -2.5
(105) COC(=O)c1ccc(NC(=O)c2ccc(N(C)S(C)(=O)=O)cc2)cc1
    i | 0.9
(106) O=[N+]([O-])/C=C1/CCCCCN1
    i | 0.96
(107) O=C(/C=C\c1ccco1)Nc1nc(-c2ccccc2)cs1
    i | 0.01
(108) CC(=O)N1CCC(N(CCN2CCOCC2)C(=O)Nc2ccc(Cl)c(Cl)c2)CC1
    i | -0.06
(109) CCOc1ccccc1NC(=O)N1CCN(S(C)(=O)=O)CC1
    i | -0.57
(110) COc1ccc(C(=O)/C=C/c2ccc(OC)cc2OC)c(O)c1
    i | -0.39
(111) Cc1ccc(N=CNc2ccc(C)cc2C)c(C)c1
    i | -1.9
(112) O=C(CNC(=O)c1nc[nH]c1C(=O)N1CCN(c2ccccc2)CC1)OCc1ccccc1
    i | -1.4
(113) Cc1nnnn1-c1cccc(C(=O)O)c1
    i | -0.9
(114) COc1ccc(OC)c(-n2nnnc2SCC(=O)Nc2cc(C)ccc2OC)c1
    i | -1.5
(115) Cc1ccc(N(C(=O)CS(=O)CC(=O)Nc2ccc(F)cc2)C(C(=O)NC2CCCCC2)c2ccco2)cc1 (configuration not stated)
    i | 0.01
(116) CC(C)C(NC(=O)c1ccc2c(c1)OCO2)C(=O)N/N=C/c1cccs1 (configuration not stated)
    i | 0.88
(117) COc1cc(/C(C#N)=C/c2ccccc2)c([N+](=O)[O-])cc1OC
    i | 0.62
